HSV replic up – HSV replication enhancement; AID 1956; HSV replication augmentation in cells, fold increase; 220,000 tested, 0.005% active; maximum fold increase;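 active means peak rise of 1.5-fold or more in the series; inconclusive means self-fluorescent or not available for retest; tested in PC3 cells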;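 further: first round at 10 µM; read as green reporter fluorescence; hits show the peak of a series up to 25 µM; 1 = signal of infected wells without compound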
GALR2 agonist – agonists of human galanin receptor 2 (GALR2); AID 803; activation, %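 (tested at 5 µM)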; 140,000 tested, 0.48% active; GALR2-expressing cells, agonist activation read-out;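 active means above mean plus 3 SD of all compounds, about 5% in these data, not always enough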;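 further: 0% = vehicle buffer wells and 100% = reference agonist at full effect; tested in CHO reporter cells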
Target sequence (O43603 whole entry, looked up): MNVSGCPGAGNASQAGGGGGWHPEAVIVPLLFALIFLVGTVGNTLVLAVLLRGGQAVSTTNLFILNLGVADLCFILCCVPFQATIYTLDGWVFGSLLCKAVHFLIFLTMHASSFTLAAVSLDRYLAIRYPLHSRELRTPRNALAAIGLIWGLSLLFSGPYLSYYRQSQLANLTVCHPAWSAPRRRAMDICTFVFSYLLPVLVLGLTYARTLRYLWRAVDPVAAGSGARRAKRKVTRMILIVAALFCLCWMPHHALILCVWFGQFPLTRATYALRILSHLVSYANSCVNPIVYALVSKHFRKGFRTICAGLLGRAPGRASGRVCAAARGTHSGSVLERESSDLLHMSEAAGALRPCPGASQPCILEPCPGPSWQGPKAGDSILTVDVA
RGS16-Gao HTS – RGS16-Galphao interaction regulator (human). binding response (% of control), % at 10 µM. 220,000 tested, 0.38% active. bead-based flow cytometry RGS16-Galphao binding, fluorescence; actives lie on both sides. O15492+P09471. AID 1441;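 active means below 25% or above 175%, edge rows of some plates excepted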;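 further: Galphao activated by GDP with aluminum fluoride before binding; 100% = wells without compound and 0% = beads without RGS; some results beyond the cut were filed as inactive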
Target sequence (O15492 whole entry, looked up): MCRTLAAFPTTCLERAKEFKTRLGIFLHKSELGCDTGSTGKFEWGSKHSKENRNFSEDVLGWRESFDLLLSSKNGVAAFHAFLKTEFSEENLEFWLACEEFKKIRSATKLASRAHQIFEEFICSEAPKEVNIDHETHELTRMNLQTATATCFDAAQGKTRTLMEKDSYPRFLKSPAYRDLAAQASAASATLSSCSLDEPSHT
Target sequence (P09471 whole entry, looked up): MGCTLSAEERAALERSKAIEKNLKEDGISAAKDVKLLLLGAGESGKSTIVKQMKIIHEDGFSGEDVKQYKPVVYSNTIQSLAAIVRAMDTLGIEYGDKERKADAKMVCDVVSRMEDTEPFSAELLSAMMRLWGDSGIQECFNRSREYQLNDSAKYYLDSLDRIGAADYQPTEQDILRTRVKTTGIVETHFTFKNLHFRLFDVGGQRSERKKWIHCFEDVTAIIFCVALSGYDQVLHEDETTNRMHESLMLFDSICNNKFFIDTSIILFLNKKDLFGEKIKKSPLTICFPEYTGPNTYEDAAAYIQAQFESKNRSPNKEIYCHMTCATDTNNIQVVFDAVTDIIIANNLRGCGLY
INS promoter inh – TRM-6 insulin promoter activity inhibition; inhibition, % at 2 µM; 130,000 tested, 0.9% active; AID 1273; TRM-6 cells (human fetal islet line), insulin promoter-eGFP reporter, imaging; reporter expression induced with tamoxifen;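 active means inhibition above the mean plus 3 SD, with well images judged a real hit on visual review, cut at about 60% in these data, passing the limit was not always enough; inconclusive means inhibition over the cutoff but images rejected on review; inactive means inhibition not above the cutoff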
PKD1 kinase inh – blocks activity of human protein kinase D1. PKD1 kinase fluorescence polarization assay. 200,000 tested, 0.056% active. inhibition, %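 (about 10 µM by stock and volumes)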;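 active means inhibition of 50% or more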;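 further: controls were vehicle for no effect and a reference inhibitor for full effect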
INS promoter inh cell count – second read-out of INS promoter inh, no call of its own (marks repeat the call); normalized cell count, %; measured here: cell count, toxicity; reference of the scale not given here;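 cells exposed to compound for 48 h; stained nuclei by imaging scaled within each plate; lower means fewer cells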
HSV replic up primary fold – recorded beside HSV replic up, whose call it bears; fold increase; compound at 10 µM; measured here: primary screen fold increase 10 uM; tested in PC3 cells;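 GFP signal in the first replicate; 1 = infected wells without compound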
* marks the source's active call; other numbers are inactive results; i = inactive; ? = inconclusive; . = no result given.

SMILES	HSV replic up	HSV replic up primary fold	GALR2 agonist	RGS16-Gao HTS	INS promoter inh	INS promoter inh cell count	PKD1 kinase inh
CC1CCCCN1C(=O)c1ccc(N2CC3CC(C2)c2cccc(=O)n2C3)c([N+](=O)[O-])c1 (stereo not given)	i	0.91	-0.8	117	-14	163	-7
FC(F)(F)c1ccccc1CN1CCN(Cc2ccccc2)CC1	i	0.95	0.8	103	-5	143	-7
Cc1cccc(N2C(=O)NC(=O)/C(=C\c3cccn3-c3ccc(Cl)cc3)C2=O)c1	i	0.93	-0.6	95	-52	92	1
CCCCCn1c(=O)c(C(=O)Nc2ccccc2S(N)(=O)=O)c(O)c2ccccc21	i	0.9	.	114	19	52	1
CCOc1cc(C=C2C(=O)NC(=O)NC2=O)cc([N+](=O)[O-])c1O	i	0.76	.	103	.	.	-7
Cc1ccc(-c2cc(C(F)F)n3ncc(C(=O)N4CCC5(CC4)OCCO5)c3n2)cc1	i	1	1.1	109	10	110	-1
CCCCN1C(=O)/C(=C/c2ccc(N3CCCCCC3)cc2)C(=O)NC1=S	i	1.1	-0.4	108	.	.	-9
CCCCn1c(O)c(C(C)=NCCCN(CC)CC)c(=O)[nH]c1=O	i	0.86	-0.5	100	36	72	-1
O=C(O)c1cccc2c1NC(c1cccc([N+](=O)[O-])c1)C1CC(Sc3ccccc3[N+](=O)[O-])C(Cl)C21 (stereo not given)	i	1	.	101	.	.	0
O=C(Nc1cccc2ccccc12)c1nn(C23CC4CC(CC(C4)C2)C3)cc1Br	i	1	-0.1	100	10	105	-2

The closing 3 records of the part above come first, to join the parts.
SMILES	HSV replic up	HSV replic up primary fold	GALR2 agonist	RGS16-Gao HTS	INS promoter inh	INS promoter inh cell count	PKD1 kinase inh
CCCCn1c(O)c(C(C)=NCCCN(CC)CC)c(=O)[nH]c1=O	i	0.86	-0.5	100	36	72	-1
O=C(O)c1cccc2c1NC(c1cccc([N+](=O)[O-])c1)C1CC(Sc3ccccc3[N+](=O)[O-])C(Cl)C21 (stereo not given)	i	1	.	101	.	.	0
O=C(Nc1cccc2ccccc12)c1nn(C23CC4CC(CC(C4)C2)C3)cc1Br	i	1	-0.1	100	10	105	-2
CCC12C=CCN3CCC4(c5cc(Br)c(OC)cc5N(C)C4C(O)(C(=O)OC)C1OC(C)=O)C32 (stereo not given)	i	1	-2.1	107	.	.	2
C[C@]12CCC(=O)C(O)=C1CC[C@@H]1[C@@H]2CC[C@]2(C)C(=O)CC[C@@H]12	i	0.67	0.2	103	-43	91	0
CN1CCN(C(=O)COc2ccc(S(=O)(=O)NCc3ccccc3)cc2Cl)CC1	i	0.83	-0.7	102	-106	79	-8
O=C(CN1C(=O)CN=C(c2ccccc2)c2ccccc21)NCc1ccco1	i	1	-1.4	108	-281	90	-1
O=C(c1ccco1)C12CN3CN(CN(C3)C1)C2	i	0.93	-0.6	158	0	74	-8
CN=C(SCc1cc2c(cc1Cl)OCO2)c1c(O)n(C)c(=O)n(C)c1=O	i	0.96	-2.3	96	.	.	2
COc1cccc(-n2nc(C(=O)N3CCC4(CC3)OCCO4)c3ccccc3c2=O)c1	i	0.96	0.4	100	.	.	-18
Nc1cc(N2CCNCC2)ccc1[N+](=O)[O-]	i	0.97	-1.7	102	-10	146	5
CN1C(=O)C(C2c3ccccc3C(=O)N2Cc2ccccc2)C(=O)N(C)C1=O (stereo not given)	i	0.99	0.8	100	-12	110	-3
Cc1ccc2c(c1)CC1(CN2C)C(=O)NC(=O)N(c2ccc(C)c(C)c2)C1=O (stereo not given)	i	0.93	-1.7	143	-3	113	2

Next entries
SMILES	HSV replic up	HSV replic up primary fold	GALR2 agonist	RGS16-Gao HTS	INS promoter inh	INS promoter inh cell count	PKD1 kinase inh
Cc1cc(C(=O)CS(=O)c2ccc(F)cc2)cc(C)c1OC(=O)N(C)C (stereo not given)	i	0.98	.	100	14	130	-8
Cc1ccc(C(c2nnnn2Cc2ccccc2)N2CC=C(c3ccc(F)cc3)CC2)cc1 (stereo not given)	i	0.84	-3.1	109	52	83	-5
C=CCn1c(O)c(C(C)=NCCCO)c(=O)[nH]c1=O	i	0.96	-0.3	101	22	85	2
COc1ccc2[nH]cc(CCN=C(N)N)c2c1	i	0.93	.	104	-44	127	-2
C/C(=N/OC(=O)N(C)C)c1ncc(C(F)(F)F)cc1N1CCOCC1	i	1	6.9	154	33	129	-5
O=C(CNC(=O)OCc1ccccc1)Nc1ccc(Br)cc1C(=O)c1ccccc1Cl	i	1.3	-0.4	67	.	.	-11
COc1cc(C[C@@H](C)N)c(OC)cc1I	i	0.79	.	77	.	.	.
O=C(c1ccc(F)cc1)C(Cc1ccccc1)N1CCCCC1 (stereo not given)	i	1.1	.	107	.	.	-6
CCCOc1ccccc1C1SCC(=O)Nc2c1c(=O)[nH]n2C(C)CCC (stereo not given)	i	0.89	0.3	105	.	.	-9
C=C[C@@H]1C[C@@]1(C)[C@@H](NP(=O)(c1ccccc1)c1ccccc1)c1ccccc1	i	1.1	-1.7	107	-70	117	-6

Continuation:
SMILES	HSV replic up	HSV replic up primary fold	GALR2 agonist	RGS16-Gao HTS	INS promoter inh	INS promoter inh cell count	PKD1 kinase inh
Cc1ccccc1N1C(=O)NC(=O)/C(=C\c2cnn(-c3ccccc3)c2)C1=O	i	0.9	2.5	103	-25	61	-3
CCCN(CCC)[C@@H]1CCc2cccc(O)c2C1	i	0.71	.	107	.	.	.
c1ccc(CCNCc2ccccc2)cc1	i	1.1	-1.8	106	-19	67	3
Cc1ccc(CN2CCCC(C(=O)c3cccc(C(F)(F)F)c3)C2)o1 (stereo not given)	i	0.96	.	102	-75	104	-1
[O-][n+]1onc2c1CCC1N(O)CCC21O (stereo not given)	i	1	-1.9	101	-231	65	0
CCN(CC)CCOC(=O)c1ccc(N=Cc2c(O)[nH]c(=O)[nH]c2=O)cc1	i	1.1	-0.6	98	-16	144	-11
CCCCn1c(O)c(/C=C2/C=CC=N2)c(=O)[nH]c1=O	i	1.1	.	98	.	.	.
O=P(NS(=O)(=O)c1ccc(Cl)cc1)(Oc1ccccc1)Oc1ccccc1	i	1.1	-0.9	98	59	38	-7
COc1ccccc1CCNC1CCC(C)CC1 (stereo not given)	i	0.87	0.3	104	.	.	-10
CC1(C)N(O)C2CCCCC2N1O (stereo not given)	i	1	-0.7	94	-7	58	6

Carrying on:
SMILES	HSV replic up	HSV replic up primary fold	GALR2 agonist	RGS16-Gao HTS	INS promoter inh	INS promoter inh cell count	PKD1 kinase inh
CN1CCN(c2ccc(S(=O)(=O)C(F)(F)F)cc2[N+](=O)[O-])CC1	.	.	-1.4	108	.	.	-1
CC(=NCCO)c1c(O)n(C2CCCCC2)c(=O)[nH]c1=O	i	0.96	-1.5	107	21	98	-12
COc1cc2c(cc1OC)-c1c(OC)c(OC)cc3c1C(C2)N(C)CC3 (stereo not given)	i	0.78	-1.1	102	-28	127	15
O=C(Cc1ccccc1)OCCN1CCCCC1	i	0.94	-0.4	99	.	.	7
CNC(=O)Nc1ccc(C(O)(C(=O)OC)C(F)(F)F)cc1 (stereo not given)	i	1	.	105	.	.	.
CC1(c2ccccc2)NCCN2C(=O)CSC21 (stereo not given)	i	0.94	-2.3	112	25	82	-11
N#CC(C#N)=C(N)c1cccnc1	i	0.97	.	105	18	116	-2
C=CCn1c(O)c(C(C)=Nc2ccc(NC(C)=O)cc2)c(=O)[nH]c1=O	i	0.98	-1.3	90	25	118	4
CN1CCC2(CC1)NC(=O)c1ccccc1N2	i	0.9	.	99	.	.	.
O=C1NC(=O)N(c2ccc3c(c2)OCO3)C(=O)/C1=C/c1ccc(N2CCCC2)o1	?	.	-2.0	101	-17	133	-21

Going on with the list.
SMILES	HSV replic up	HSV replic up primary fold	GALR2 agonist	RGS16-Gao HTS	INS promoter inh	INS promoter inh cell count	PKD1 kinase inh
Cc1nn(Cc2ccccc2)c(Cl)c1C(=O)O	i	0.81	.	100	.	.	-3
C=CP(=O)(O)c1ccccc1	i	1	-2.9	92	30	113	-3
CCN1CCN(c2ncnc3ccc(Br)cc23)CC1	i	0.85	-1.1	101	.	.	-4
O=c1c(C=NCc2cccs2)c(O)n(C2CCCCC2)c(=O)n1C1CCCCC1	i	1.1	-2.3	101	31	79	2
NP(=O)(OCC(F)(F)F)Oc1ccc(Cl)cc1 (stereo not given)	i	1	-0.3	100	.	.	1
O=c1c(/C=N/N2CCOCC2)c(O)n(-c2ccccc2)c(=S)n1-c1ccccc1	i	1.1	-0.3	96	15	99	2
Fc1ccc(C(OCCN2CCCC2)c2ccc(F)cc2)cc1	i	0.9	-0.9	103	3	116	-10
O=C(CNC(=O)c1ccccc1)Nc1ccc(Br)cc1C(=O)c1ccccc1	i	1	-1.6	109	-52	38	-10
CC(=O)OC1N=C(c2ccccc2)c2cc(Br)ccc2N(C)C1=O (stereo not given)	.	.	-1.0	94	13	123	6
C#CCOCOCC#CCN(CC)CC	i	0.91	-0.3	89	37	114	1

(continued)
SMILES	HSV replic up	HSV replic up primary fold	GALR2 agonist	RGS16-Gao HTS	INS promoter inh	INS promoter inh cell count	PKD1 kinase inh
CCN(CC)c1ccc(N=Cc2c(O)n(-c3ccccc3)c(=O)[nH]c2=O)cc1	i	1.1	.	97	.	.	.
CCOC(=O)c1[nH]c(C)c(C(=O)N2CCC3(CC2)OCCO3)c1C	i	0.92	-2.0	114	.	.	-19
Oc1ccc(/C=N/NP(=S)(c2ccccc2)c2ccccc2)cc1	i	0.91	0.1	97	-54	66	-2
S=C(c1ccc(Cl)cc1)N1CCOCC1	i	1	-0.8	158	-74	148	-12
Cc1cccc(NP(=O)(Oc2ccccc2F)Oc2ccccc2F)c1	i	0.9	-0.1	157	-31	82	-2
COc1ccc(OCC(=O)N2CCN(Cc3ccc(SC)cc3)CC2)cc1	i	0.96	.	102	38	104	1
Clc1ccc2c(c1)C(OC1CN3CCC1CC3)c1ccccc1CS2 (stereo not given)	i	0.59	0.1	108	0	85	12
CCc1nc2ccc(N3CCN(C)CC3)cc2nc1CC	i	0.96	.	99	.	.	-2
CC(C)C12CN3CCN(CC(C3)/C1=N\O)C2	i	1.1	-1.1	101	-308	77	0
O=c1c2ccccc2[nH]c(=S)n1-c1cccnc1	i	0.72	.	94	.	.	.

More structures
SMILES	HSV replic up	HSV replic up primary fold	GALR2 agonist	RGS16-Gao HTS	INS promoter inh	INS promoter inh cell count	PKD1 kinase inh
CN1CCC(N(C)c2nc(-c3ccc([N+](=O)[O-])cc3)nc3ccccc23)CC1	.	.	0.7	92	.	.	-8
CN(C)CP(=O)(O)CN(C)C=O	i	0.91	-0.7	109	-9	139	-7
O=[N+]([O-])c1ccc(N2CCCNCC2)c2ncccc12	i	1	.	103	.	.	.
Brc1ccc2[nH]cc(/C=N/N3CCCCC3)c2c1	i	1	-0.5	100	-79	157	-10
COC1CC(OC2CCC3(C)C(CCC4C3CCC3(C)C(C5=CC(=O)OC5)C(OC(C)=O)CC43O)C2)OC(C)C1OC1OC(COC2OC(CO)C(O)C(O)C2O)C(O)C(O)C1O (stereo not given)	i	0.52	.	102	.	.	.
CCCCOCCCn1c(N)c(C(=O)OC(C)COC)c2nc3ccccc3nc21 (stereo not given)	i	0.84	-0.2	98	.	.	-3
Cc1ccccc1N1C(=O)NC(=O)/C(=C\c2cc(Br)c(N3CCOCC3)o2)C1=O	i	1	-0.6	97	.	.	-22
CC(C)N1CCN(Cc2ccc3c(c2)OCCO3)CC1CCO (stereo not given)	i	0.93	.	114	.	.	5
Cc1cccc(-n2c(-c3ccco3)nc3ccccc3c2=O)n1	i	1	-3.3	102	15	122	0
CC(=NCC1CCCO1)c1c(O)n(C2CCCCC2)c(=O)[nH]c1=O (stereo not given)	i	0.99	.	105	.	.	.

Additional structures follow:
SMILES	HSV replic up	HSV replic up primary fold	GALR2 agonist	RGS16-Gao HTS	INS promoter inh	INS promoter inh cell count	PKD1 kinase inh
Cn1c(O)c(C=NCCOc2ccc(Cl)cc2)c(=O)n(C)c1=O	i	0.81	0.3	106	-68	100	-8
CCCCCCN1CCN(c2ccccc2Cl)CC1	i	0.95	.	93	.	.	5
COC(=O)C(O)(c1ccc(N=Cc2ccccc2O)c(C)c1)C(F)(F)F (stereo not given)	i	0.93	0.3	96	6	150	-1
CCOC(=O)N(c1ccccc1)P1(=S)OCC(C)O1 (stereo not given)	i	1.1	-0.3	97	9	90	-10
CCOc1cc(/C=C2/C(=O)NC(=O)N(c3ccc(CC)cc3)C2=O)ccc1OC(=O)c1cccs1	i	1.1	-1.0	106	22	154	4
O=C1NC(=O)C(=CN2CCc3ccccc32)C(=O)N1	i	1	0.1	96	15	95	4
C/C(=N\Nc1ccccc1)c1c(O)n(C)c(=O)n(C)c1=O	.	.	-1.4	101	.	.	-8
CCCCNC(=O)NC(C(N)=O)P(=O)(OCC)OCC (stereo not given)	i	1	.	105	.	.	.

Screening results as filed in PubChem BioAssay.

Some of the compounds tested; rates above refer to the full screens.
